Pf growth 48h – Primary qHTS for delayed death inhibitors of the malarial parasite plastid, 48 hour incubation; P. falciparum luciferase growth in erythrocytes, 48 h; Potency, µM (top dose mostly 28.7 µM), for inactives: top-dose activity change, negative = inhibition, usual class: inhibitors; 5.9% of 310,000 active
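First compound was added to culture medium, then infected red cells at 0.1% parasitemia and 2% hematocrit (final). After incubation at 37 C under 5% CO2, luciferase detection reagent was dispensed and light output recorded.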
TbPYK inhibitor – qHTS of Trypanosoma Brucei Inhibitors. pyruvate kinase (Trypanosoma brucei), Q57TT1. TbPYK enzyme, Kinase-Glo Plus ATP luminescence, 45 min. Potency, µM (titrated, usually from 76.8 µM), inactives show top-dose activity, negative = inhibition, hits mostly inhibitors. 0.12% of 410,000 active. AID 624173, 2012; further: nearly all actives have a fitted effect of over 50% in size
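Screened from lowest to highest concentration, compounds were pinned into TbPYK/substrate mixtures, and ADP (130 uM final) was added. Plates sat at room temperature for 45 min prior to Kinase-Glo Plus detection by luminescence.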
AMA1-RON2 inh – qHTS for Inhibitors of AMA1-RON; Towards Development of Antimalarial Drug Lead: Primary Screen; Potency, µM (top dose mostly 58.2 µM), for inactives: at the highest dose activity change, negative = inhibition, usual class: inhibitors; Plasmodium falciparum AMA1 (3D7) - RON2 peptide interaction; AlphaScreen AMA1-biotinylated RON2 peptide binding; AID 720542, 2013; 0.2% of 360,000 active;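 further: 0% = vehicle wells and -100% = peptide control; nearly all actives have a fitted effect of over 45% in size; some results filed as inactive show a strong effect at the top dose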
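AMA1 (3D7) with his tag at 25 nM final met compounds first, then biotinylated RON2 peptide at 25 nM; detection used donor plus acceptor beads, 10 µg/mL apiece, read by AlphaScreen after 30 min at room temperature.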
Pf growth 96h – Primary qHTS for delayed death inhibitors of the malarial parasite plastid, 96 hour incubation; Potency, µM (top dose mostly 28.7 µM), for the others: at the highest dose activity change, negative = inhibition, actives largely listed as inhibitors; 6.9% of 320,000 active; P. falciparum luciferase reporter growth, 96 h
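Infected RBCs, 2% Hct / 0.05% parasitemia final; luciferase-reporter P. falciparum; cpd 96 h, 37 C, 5% CO2; luciferase detection reagent; luminescence.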
Active calls of the source: *; ? = inconclusive; · = not tested or not shown; & = joins results of further samples; [ ] = another dose, or the depositor's remark. The call rests on the fitted dose curve; in most records, active means well fitted curve in the direction sought with a large enough effect; inconclusive means small, poorly fitted or top-dose-only effect, or another doubt; inactive means no such curve, though single readings can be large; an effect the other way counts as inactive or inconclusive. Unless noted, on the % scale 0 is the no-effect control and ±100 the full control effect; potency means the concentration at half of the fitted maximal effect. A portion of the library; the hit share may differ from the screen's.

Start of the listing, in advance:
1: CCC(C)(C)C(=O)O[C@@H]1C[C@H](C)C=C2C=C[C@H](C)[C@@H](CC[C@H]3C[C@@H](O)CC(=O)O3)[C@H]21
2: Nc1ccn([C@H]2C[C@H](O)[C@@H](CO)O2)c(=O)n1
3: COc1ccc([C@@H]2Sc3ccccc3N(CCN(C)C)C(=O)[C@@H]2OC(C)=O)cc1
4: O=C(NCc1ccccc1)c1ccc(Br)cc1Br
5: Cc1cn([C@H]2C[C@H](N=[N+]=[N-])[C@@H](CO)O2)c(=O)[nH]c1=O
entry no.	1	2	3	4	5
Pf growth 48h	-6.3%[12.8 µM]	-22.4%&32.1%	?	6.1%	-17.2%&3.3%
TbPYK inhibitor	-9.3%[33.2 µM]	4.2%&1.3%	2.4%&0.6%	1.2%	-5.5%&-2.1%
AMA1-RON2 inh	·	-2.4%&-1.0%	-6.6%	1.4%	12.3%
Pf growth 96h	-24.7%[12.8 µM]	24.9%&11.8%	-21.4%&-6.5%	45.2%[activator]	3.9%&3.2%

This part in full, from the first entry:
1: CCC(C)(C)C(=O)O[C@@H]1C[C@H](C)C=C2C=C[C@H](C)[C@@H](CC[C@H]3C[C@@H](O)CC(=O)O3)[C@H]21
2: Nc1ccn([C@H]2C[C@H](O)[C@@H](CO)O2)c(=O)n1
3: COc1ccc([C@@H]2Sc3ccccc3N(CCN(C)C)C(=O)[C@@H]2OC(C)=O)cc1
4: O=C(NCc1ccccc1)c1ccc(Br)cc1Br
5: Cc1cn([C@H]2C[C@H](N=[N+]=[N-])[C@@H](CO)O2)c(=O)[nH]c1=O
6: O=C(O)c1cc(=O)c2c(OCC(O)COc3cccc4oc(C(=O)O)cc(=O)c34)cccc2o1
7: CC(C)(C#N)c1cc(Cn2cncn2)cc(C(C)(C)C#N)c1
8: O=C(NN=C1CCCCCC1)c1c[nH]c2ccccc12
entry no.	1	2	3	4	5	6	7	8
Pf growth 48h	-6.3%[12.8 µM]	-22.4%&32.1%	?	6.1%	-17.2%&3.3%	15.5%&6.5%	-3.8%	2.7%
TbPYK inhibitor	-9.3%[33.2 µM]	4.2%&1.3%	2.4%&0.6%	1.2%	-5.5%&-2.1%	-4.6%&-2.2%	-11.3%	1.1%
AMA1-RON2 inh	·	-2.4%&-1.0%	-6.6%	1.4%	12.3%	8.5%	·	34.2%[activator]
Pf growth 96h	-24.7%[12.8 µM]	24.9%&11.8%	-21.4%&-6.5%	45.2%[activator]	3.9%&3.2%	-11.9%&5.6%	-4.5%	-15.7%

Another view of some results above.
Second line of a record: Pf growth 48h, TbPYK inhibitor, AMA1-RON2 inh, Pf growth 96h
#5 Cc1cn([C@H]2C[C@H](N=[N+]=[N-])[C@@H](CO)O2)c(=O)[nH]c1=O
  -17.2%&3.3%, -5.5%&-2.1%, 12.3%, 3.9%&3.2%
#6 O=C(O)c1cc(=O)c2c(OCC(O)COc3cccc4oc(C(=O)O)cc(=O)c34)cccc2o1
  15.5%&6.5%, -4.6%&-2.2%, 8.5%, -11.9%&5.6%
#7 CC(C)(C#N)c1cc(Cn2cncn2)cc(C(C)(C)C#N)c1
  -3.8%, -11.3%, ·, -4.5%

(next part)
9: c1ccc2nc(-c3ccc4c(c3)OCO4)ccc2c1
10: CC12CCC(=O)C=C1CCC1C2C(O)CC2(C)C1CCC2(O)C(=O)CO (stereo not drawn)
11: NC(=O)c1cccnc1
12: CN(C)C(=O)Oc1ccc2c(c1)O/C(=C\c1ccccc1)C2=O
13: O=C(Cc1ccc2c(c1)CCCC2)Nc1ccc2ccccc2c1
14: CCOC(=O)c1ncn2c1CN(C)C(=O)c1cc(F)ccc1-2
15: Cc1nn(CC(=O)O)c(C)c1Cl
16: COC(=O)c1sccc1NC(=O)Nc1cccc(F)c1
entry no.	9	10	11	12	13	14	15	16
Pf growth 48h	291.6%[activator]	4.6%	2.7%&0.1%	101.0%[activator]	29.4%	-0.7%&-2.2%	30.7%[activator]	14.0%
TbPYK inhibitor	-16.3%	-8.3%	-2.5%&-7.3%	3.2%	-9.1%	-1.3%&-5.4%	0.0%	-25.9%
AMA1-RON2 inh	17.3%	0.0%	2.7%	-3.7%	6.4%	13.5%	-0.9%	?
Pf growth 96h	240.1%[activator]	111.2%[activator]	2.1%&-16.8%	68.2%[activator]	13.2%	0.4%&29.6%	·	34.6%[activator]

17: O=C(Nc1cccc(OC(=O)N2CCCCC2)c1)N1CCOCC1
18: CC[N+](C)(C)c1cccc(O)c1
19: CC1(C)SC2C(NC(=O)C(N)c3ccccc3)C(=O)N2C1C(=O)O (stereo not drawn)
20: c1ccc2c(CNc3ccc(CNc4ncn[nH]4)cc3)cccc2c1
21: O=c1[nH]cnc2c1ncn2[C@H]1CC[C@@H](CO)O1
22: CC(=O)OCC(=O)[C@@]1(O)CCC2C3CCC4=CC(=O)CCC4(C)C3C(=O)CC21C (stereo partly drawn)
23: COc1ccc(-c2cc(OC)c3ccccc3n2)cc1
24: CC1(C)CC(=O)C(C=NCc2ccc3c(c2)OCO3)=C(O)C1
entry no.	17	18	19	20	21	22	23	24
Pf growth 48h	10.4µM*	?	·	14.1%	?	8.7%	48.3%[activator]	-13.9%
TbPYK inhibitor	2.5%	-1.8%	-6.3%	0.0%	-1.5%&2.9%	0.3%	-2.4%	4.7%
AMA1-RON2 inh	0.0%	-8.6%	·	?	1.3%	2.2%	8.9%	1.9%
Pf growth 96h	279.8%[activator]	1.65µM*	·	?	?	35.6%[activator]	68.3%[activator]	14.0%

Going on with the list.
nr	Molecule	Pf growth 48h	TbPYK inhibitor	AMA1-RON2 inh	Pf growth 96h
25	C[N+]1(C)C2CC(OC(=O)[C@H](CO)c3ccccc3)CC1C1OC12 (stereo partly drawn)	·	-17.9%	6.4%	·
26	Cc1nn(-c2ccccc2)c(/N=C/c2ccccc2O)c1-c1ccccc1	101.2%[activator]	8.4%	-26.2%	?
27	CCN(CC)C(=O)N1CCN(C)CC1	-15.6%[12.8 µM]	2.3%	0.0%	3.5%[12.8 µM]
28	CC(C)(C(=O)O)c1ccc(C(O)CCCN2CCC(C(O)(c3ccccc3)c3ccccc3)CC2)cc1 (stereo not drawn)	21.6%	4.0%&-8.9%	-7.1%	17.3%
29	Cn1c(=O)c2c(ncn2C)n(C)c1=O	23.7%&-4.4%	1.9%&-6.8%	0.2%	-5.6%&19.2%
30	COc1ccc(NC(=O)Nc2ccccc2F)cc1	·	-22.8%	6.2%	324.3%[activator]
31	COc1ccc(-c2cn[nH]c2-c2ccc(OC)cc2)cc1	8.5%	5.2%	-3.1%	3.3%
32	Brc1ccc(-c2cn3ccccc3n2)s1	·	-5.5%	-20.0%	268.8%[activator]
33	CCN(CC)c1ccc2cc(-c3nnc(-c4ccncc4)o3)c(=O)oc2c1	35.6%[activator]	4.4%	-6.4%	17.7%
34	CSc1nc(N)n2nc(-c3ccccc3)cc2n1	345.6%[activator]	-7.4%	2.2%	170.3%[activator]
35	CC1CCCC(NC(=S)NC(=O)c2ccccc2Br)C1C (stereo not drawn)	?	2.8%	36.3%[activator]	?
36	CN(c1ccc(O)cc1)c1nc(-c2ccccc2)cs1	149.0%[activator]	-8.9%	-21.2%	2.2%
37	O=C(Nc1ccc(F)cc1)Nc1ccccc1F	119.7%[activator]	0.4%	-0.5%	0.6%
38	CCOc1cc(-c2nnc(-c3ccco3)o2)cc(OCC)c1OCC	?	4.8%	4.0%	·
39	C[C@]12CC[C@H](O)CC1=CC[C@@H]1[C@@H]2CC[C@]2(C)C(=O)CC[C@@H]12	·	0.7%	9.2%	·
40	Nc1nonc1C(=O)N/N=C/c1cccc([N+](=O)[O-])c1	-9.2%	6.1%	21.3%	20.8%
41	O=c1[nH]c2ccccc2n1C1CCN(CCCC(c2ccc(F)cc2)c2ccc(F)cc2)CC1	?	3.2%&-20.2%	?	2.62µM*

Assay outcomes (PubChem)
